Compound activity: PubChem BioAssay, National Center for Advancing Translational Sciences (NCATS)
VACV mCherry inh: vaccinia inhibition (mCherry reporter); AID 720579; actives 0.63% (n = 310,000); Vaccinia virus mCherry reporter infection, fluorescence; about a quarter of the inactives have no number; Potency, µM (highest dose often 36.5 µM), for the others: at the highest dose activity change, negative = inhibition, hits mostly inhibitors; active = well fitted inhibition curve with a large enough effect; inconclusive = small, poorly fitted or top-dose-only effect; inactive = no such curve, though single readings can be large or run the other way; tested in A549 cells; note: nearly all actives have a fitted effect of over 35% in size; inactives centre near -10
Vaccinia Venus: inhibitors of vaccinia virus (Venus reporter); AID 720580; Potency, µM (doses to about 36.5 µM), inactives show top-dose activity change, negative = inhibition, usual class: inhibitors; actives 0.46% (n = 330,000); Vaccinia virus Venus reporter expression, fluorescence; active means well fitted inhibition curve with a large enough effect; inconclusive means small, poorly fitted or top-dose-only effect; inactive means no such curve, though single readings can be large or run the other way; tested in A549 cells; note: nearly all actives have a fitted effect of over 30% in size; inactives centre near -10
Starred values were filed as active, the others as inactive; i = inactive; ? = inconclusive; . = no result given; [ ] = remark or other dose. % is set by controls: 0 for no effect and ±100 for the full control effect; potency is the fitted concentration of half-maximal effect. Outcome played no part in choosing rows; about 0.87% have a hit in one of these screens.

Molecule | VACV mCherry inh | Vaccinia Venus
CCOc1ccccc1NC(=O)CSc1nnc(CCC(=O)Nc2ccccc2F)n1C | i | -14%
O=C(NCCCN1CCN(c2ccc(F)cc2)CC1)c1ccc2nc(CCc3ccccc3)oc2c1 | ? | ?
CSc1ccc(CN(C)C(=O)c2cc(=O)[nH]c3ccccc23)cc1 | i | -18%
CCC(CC)C(=O)N(CCc1ccc(OC)cc1)Cc1nc2ccccc2c(=O)[nH]1 | -17% | -27%
NC(=S)N/N=C/c1ccc(-c2cccc([N+](=O)[O-])c2)o1 | 4.5µM* | 5µM*
CC(O)CCC(=O)NNC1CC(=O)N(c2ccccc2)C1=O (centres undefined) | 0% | -14%
COCCn1c(SCC(=O)Nc2ccc3c(c2)OCCO3)nc2c(c1=O)SC(C)C2 (centres undefined) | 18% | -7%
CCCNC(=O)c1onc(CS(=O)(=O)c2cccc(OC)c2)c1C(=O)NCCC | i | -4%
CCc1nc2ccc(C(=O)N3CCN(c4ccccc4)CC3)cn2c1N(C)CCC(C)C | -20% | -19%
CC(Nc1[nH]c(=O)n(C)c(=O)c1N=O)c1ccccc1 (centres undefined) | -5% | -12%
CC(C)(C)OC(=O)C[C@H]1C/C=C\C[C@H](CC(=O)N[C@@H](CO)Cc2ccccc2)C(=O)N[C@H](C(C)(C)C)COC1=O | -10% | -9%
CN(C)S(=O)(=O)c1ccc(NC(=O)Cn2nc(-c3ccc4c(c3)OCCO4)ccc2=O)cc1 | -24% | -7%
COC(=O)C(Cc1ccc(O)cc1)NC(=O)C(C)NC(=O)c1ccc(C(C)(C)C)cc1 (centres undefined) | i | 3%
Cc1ccc(N2CC(C(=O)N3CCC4(CC3)CC(=O)c3ccccc3O4)CC2=O)cc1 (centres undefined) | -8% | -19%
COc1ccc(CCn2ccc(O)c(Cc3ccc(Cl)cc3)c2=O)cc1OC | i | -5%
COC(=O)c1ccc(Cn2cc(/C=C\[N+](=O)[O-])c3ccccc32)o1 | i | -2%
O=C(CCc1c[nH]c2ccccc12)NCc1ccncc1 | 0% | -3%
CCCCN1C(=O)N(c2ccc(Cl)cc2)C(C)(O)CC1(C)C (centres undefined) | -18% | -6%
Cc1cc2ncc(S(C)(=O)=O)c(N)n2n1 | i | 3%
Cc1cc(C)c(S(=O)(=O)N2CCN=C2c2ccccc2)c(C)c1 | -21% | -13%
CN1CCN(C(=O)c2ccccc2N(Cc2ccccc2)S(C)(=O)=O)CC1 | . | -5%
C=CCOc1c(Br)cc(CNn2nnnc2N)cc1OCC | . | -4%
CSc1ccccc1NC(=O)CN(C)CC(=O)Nc1ccc(N2CCOCC2)cc1 | -16% | -8%
OCC1(CCOc2ccccc2)CCN(Cc2nc3ccc(F)cc3[nH]2)CC1 | -5% | 38%[activator]
CC(NC(=O)c1ccccc1NC(=O)c1ccccc1)C(=O)N1CCOCC1 (centres undefined) | -14% | -4%

The final 7 records of the section before lead into the next.
Molecule | VACV mCherry inh | Vaccinia Venus
Cc1cc2ncc(S(C)(=O)=O)c(N)n2n1 | i | 3%
Cc1cc(C)c(S(=O)(=O)N2CCN=C2c2ccccc2)c(C)c1 | -21% | -13%
CN1CCN(C(=O)c2ccccc2N(Cc2ccccc2)S(C)(=O)=O)CC1 | . | -5%
C=CCOc1c(Br)cc(CNn2nnnc2N)cc1OCC | . | -4%
CSc1ccccc1NC(=O)CN(C)CC(=O)Nc1ccc(N2CCOCC2)cc1 | -16% | -8%
OCC1(CCOc2ccccc2)CCN(Cc2nc3ccc(F)cc3[nH]2)CC1 | -5% | 38%[activator]
CC(NC(=O)c1ccccc1NC(=O)c1ccccc1)C(=O)N1CCOCC1 (centres undefined) | -14% | -4%
COc1ccccc1C1/C(=C(/O)c2ccccc2)C(=O)C(=O)N1CCO (centres undefined) | . | -5%
C=CCCN(C(CC(C)C)C(=O)OC)S(=O)(=O)c1cc(Br)ccc1Br (centres undefined) | ? | -23%
Cc1ccc(S(=O)(=O)N(C)C[C@H]2Oc3cc(Br)ccc3S(=O)(=O)N([C@H](C)CO)C[C@@H]2C)cc1 | i | -2%
CC(=O)Nc1ccc(S(=O)(=O)N2CCC(C(=O)NCc3ccco3)CC2)cc1 | -14% | -11%
COc1ccc(CNC(=O)C(=O)Nc2cccc(C)c2C)cc1 | -9% | -13%
C#CCOCCOCCOCCNc1nc(N2CCOCC2)nc(N2CCN(C(=O)[C@H](C)n3cc(CCCN=C(N)N)nn3)CC2)n1 | i | -11%
CCCNC(=O)C(Cc1ccc(Br)cc1)NC(=O)c1ccc(C#N)cc1 (centres undefined) | i | -10%
CN(C)c1ccc(/C=C2\C(=O)/C(=C/c3ccc(N(C)C)cc3)c3ccccc32)cc1 | -8% | 18%
COc1ccc(C(=O)c2c(N)sc3c2CCN(C(=O)OC(C)(C)C)C3)cc1 | ? | -19%
CC(/C=N\NC(=O)Cn1c(C)nc2ccccc21)=C\c1ccccc1 | -29% | -15%
CCCNC(=O)c1ccc2c(=O)c(O)c(-c3ccc(C)cc3)[nH]c2c1 | 13µM* | ?
COc1ccc(-n2ccnc2SCC(=O)Nc2cccc(OC)c2)cc1 | -23% | -22%
NC(=O)COc1ncn(-c2ccccc2)n1 | -13%[1.46 µM] | -5%
COc1cc(C)ccc1OCCSc1nnc(-c2cccs2)o1 | -3% | -1%
Nc1ccc(OCC(O)C[n+]2ccc(CCS(=O)(=O)[O-])cc2)cc1 (centres undefined) | -13% | -6%
COc1ccc(C2CCCN2C(=O)Nc2cccc(C(C)=O)c2)cc1OC (centres undefined) | . | ?
COc1ccc(-c2ccc(CN3C(CC(C)C)C(=O)N(Cc4cn(Cc5ccco5)nn4)CCS3(=O)=O)cc2)cc1 (centres undefined) | -4% | ?
Cc1occc1C(=O)Nc1cccc(-c2nc(CNC(=O)c3cccc(C#CC(C)(C)O)c3)c(C)o2)c1 | ? | ?
CN1/C(=C\C(=O)CSc2cccc[n+]2[O-])C(C)(C)c2ccccc21 | 3% | 9%
COc1ccc(/C=C/C(=O)NC(=S)N2CCCCC2)cc1OC | 5% | -2%
Cc1ccc(S(=O)(=O)N2CCCC(C(=O)NC3CC3)C2)cc1 (centres undefined) | i | -2%
Cc1c(NC(=S)N/N=C/c2cccc(O)c2)c(=O)n(-c2ccccc2)n1C | i | -3%
COc1cc(C(=O)Nc2cc(C)c(OCC(=O)N3CCOCC3)c(C)c2)cc(OC)c1OC | . | 1%
CC1CCCCC1NC(=O)COC(=O)c1cc(=O)[nH]c2ccccc12 (centres undefined) | -19% | -10%
Cc1ccc(CN2CCC(Oc3cccc(C(=O)N(C)CCN(C)C)c3)CC2)cc1C | -4% | -11%
Cc1cc(C)n(C(C[N+](=O)[O-])c2ccc(Cl)cc2)n1 (centres undefined) | -20% | -6%
CCCCn1c(O)c(N=NC(=O)c2ccccc2NS(=O)(=O)c2cccs2)c2ccccc21 | 0% | 6%
O=C(NCC(=O)N(CCN1CCOCC1)C(C(=O)NC1CCCC1)c1cccnc1)c1cccs1 (centres undefined) | i | -9%
O=C(CCNS(=O)(=O)/C=C/c1ccccc1)NCCc1c[nH]c2ccccc12 | ? | -11%
Cc1c(C(=O)N2CCN(c3ccccn3)CC2)sc2ncnc(N3CCN(c4ccccc4)CC3)c12 | -16% | -21%
O=C(NC(=S)Nc1ccccc1)c1ccc(-c2ccccc2)cc1 | -3% | -13%
Cc1ccc(NC(=O)CN2C(=O)CCn3nc(-c4cccn4C)cc32)cc1 | 2% | 11%
O=C(Cc1ccc(Cl)cc1)NCC(=O)N1CCCC1 | . | -9%
CC(=O)Nc1ccc(S(=O)(=O)Nc2cccc(-c3ccc4nncn4n3)c2)cc1 | -5% | -9%
COc1ccccc1C(=O)Nc1ccccc1OCc1cc(=O)n2c(C)csc2n1 | 20% | 18%
COc1ccccc1C(=O)NC(=O)COC(=O)Cc1n[nH]c(=O)c2ccccc12 | -14% | -12%
COc1ccccc1C1CC(=O)Nc2cc(C)c(C)cc21 (centres undefined) | -9% | -26%
CSc1ccccc1C(=O)NCc1nc(-c2cccc(NC(=O)c3ccoc3C)c2)oc1C | ? | -29%
Cc1cc(NC(=O)c2ccco2)cc(-c2nc3cc(Cl)ccc3o2)c1O | ? | ?
Cn1cc(/C=C/C(=O)c2ccccc2)c2ccccc21 | i[7.34 µM] | 2%[7.34 µM]
CN1CCN(CC(=O)NN(Cc2ccccc2)c2ccccc2)CC1 | i | -16%
OC(CNCc1ccccn1)c1ccccc1 (centres undefined) | -9% | -4%
CC1=C(c2ccc(C(C)C)cc2)S(=O)(=O)NC1=NCc1ccccc1Br | -21% | -19%
COC(=O)CN1C(=O)C(C)(C)Oc2ccc(C(=O)Nc3cccc(OC)c3)cc21 | 0% | 14%
Cc1nc2cc(-c3ccccc3)nn2c(C)c1CCC(=O)N1CCN(c2ccccc2)CC1 | ? | ?
O=C(Nc1ccc(N2C(=O)C3C4C=CC(C4)C3C2=O)cc1Cl)c1cccs1 (centres undefined) | i | -12%
O=C1OC(c2cc(Br)c(O)c(Br)c2)c2ccccc21 (centres undefined) | i | -18%
CC1=C(c2ccc(C)c(C)c2)S(=O)(=O)N=C1N1CCC(C(=O)N2CCCCC2)CC1 | -15% | -22%
CCN1CCN(C(c2cccs2)C(C)NC(=O)c2ccccc2OC)CC1 (centres undefined) | -21% | -7%
COCc1cc(C)n(CC(=O)NCC2CCCO2)c(=O)c1C#N (centres undefined) | -12% | 10%

Next part:
Molecule | VACV mCherry inh | Vaccinia Venus
CCCSc1ncnc2[nH]ncc12 | i | -1%
Cc1ccc(CSc2nc3cccnc3n2Cc2ccc(C(=O)NCCc3cccs3)cc2)cc1 | -11% | -6%
O=c1c2sccc2n(Cc2ccc(F)cc2)c(=O)n1-c1ccc(F)cc1 | -14% | 3%
CN1CCN(C(=O)c2cc3sc4ccccc4c3s2)CC1 | -6% | -16%
COc1cc(/C=N/Nc2nnc3c(n2)[nH]c2ccccc23)ccc1O | -3% | -6%
CC1CCN(S(=O)(=O)c2ccc(F)c(C(=O)O)c2)CC1 | -7% | -7%
Cc1cc(NC(=O)CCNS(=O)(=O)c2ccc3c(c2)CCCC(=O)N3)ccc1Br | -13% | -3%
CCCc1ccc(S(=O)(=O)NCc2nnc(SC)n2C)cc1 | -5% | -4%
COc1cc(OC)c(NC(=O)c2cc(S(=O)(=O)N3CCOCC3)cn2C)cc1Cl | 11% | -2%
C=CCSC1=C(C#N)C(c2ccccc2Cl)C(C(=O)c2cccs2)C(O)(C(F)(F)F)N1 (centres undefined) | -29% | -26%
Cc1csc(NC(=O)CSc2nc(C(C)C)nc3c2c(=O)n(C)c(=O)n3C)n1 | 9% | -18%
Cc1c(Br)c(C(F)(F)F)nn1CC(=O)NCC1CCCO1 (centres undefined) | -15% | -1%
CCOC(=O)C1(Cc2ccccc2C)CCCN(C(=O)CCC(=O)OC)C1 (centres undefined) | -16% | -11%
CCCS(=O)(=O)N1CCC(N2CCN(Cc3ccc(F)cc3)C(=O)C2=O)CC1 | -3% | 0%
COc1ccccc1-c1nc2c(c(SCC(=O)Nc3ccc(C)c(C)c3)n1)Cc1c(CO)cnc(C)c1O2 | -16% | -15%
COc1ccc(NC(=O)c2cc3c(=O)n(C)c4ccccc4c3n2C)cc1OC | i | -20%
N#C/C(=C\c1cccc([N+](=O)[O-])c1)C(=O)NCc1ccc(Cl)cc1 | -18% | -11%
CCCC1=Nc2cc(C(=O)NCc3ccco3)ccc2Sc2ccccc21 | -5% | ?
COCCCNC(=S)Nc1cccc(S(=O)(=O)NC2=NCCC2)c1 | i | -4%
O=C(/C=C/c1ccc(Cl)cc1Cl)NCCSc1ccccc1 | -6% | -21%
COc1ccc(NS(=O)(=O)c2cn(C)nc2C)cc1 | i | -10%
CCOC(=O)c1cc(S(=O)(=O)N2CCN(c3cc(C)ccc3C)CC2)[nH]n1 | -11% | -8%
CC(C)(C)NS(=O)(=O)c1ccc(NC(=S)NC(=O)C2CCC2)cc1 | -5% | -2%
CCC(O)c1cc2c(cc1NC(=O)c1cccs1)OCCO2 (centres undefined) | . | -29%
COc1ccc2cc(C)c3nnc(SCc4cccnc4)n3c2c1 | -8% | -18%
COc1ccc2[nH]c(C(=O)N/N=C/c3ccc(OC)c(O)c3)cc2c1 | 11µM* | -27%
CC/C(O)=C(/C#N)c1nnc2n1CCCCC2 | -13% | -6%
Cc1ccc(OCCC(=O)Nc2ccc3c(c2)OCCCO3)cc1 | i | -3%
O=C(OCc1ccccc1)N1CCC2CC1c1cc(-c3ccc(F)cc3)ccc12 (centres undefined) | i | -7%
NS(=O)(=O)c1ccc(NC(=O)c2cc(=O)c3ccccc3o2)cc1 | -6% | 4%
CC(C)C1C(=O)NC(=S)N1S(=O)(=O)c1ccc(C(C)(C)C)cc1 (centres undefined) | . | -13%
COc1ccccc1-c1cccc(-c2nc(C(=O)Nc3nccs3)cc3c2[C@@H](CCO)N(C(=O)CC2CC2)C3)c1 | -21% | -8%
